High-throughput results: PubChem, National Center for Advancing Translational Sciences (NCATS)
NPR1 antag: human Npr1 receptor antagonism. actives 1.6% (n = 76,000). Potency, µM (top dose mostly 46.3 µM), for the others: at the highest dose activity change, negative = inhibition, hits mostly inhibitors. HEK293 hNpr1 GloSensor cGMP, ANP-stimulated luminescence; active = well fitted inhibition curve with a large enough effect; inconclusive = small, poorly fitted or top-dose-only effect; inactive = no such curve, though single readings can be large or run the other way;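 also: nearly all actives have a fitted effect of over 60% in size; nearly all hits also lower the signal before the agonist is added; a reference antagonist and vehicle were the controls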
Target sequence (P16066 whole entry, looked up): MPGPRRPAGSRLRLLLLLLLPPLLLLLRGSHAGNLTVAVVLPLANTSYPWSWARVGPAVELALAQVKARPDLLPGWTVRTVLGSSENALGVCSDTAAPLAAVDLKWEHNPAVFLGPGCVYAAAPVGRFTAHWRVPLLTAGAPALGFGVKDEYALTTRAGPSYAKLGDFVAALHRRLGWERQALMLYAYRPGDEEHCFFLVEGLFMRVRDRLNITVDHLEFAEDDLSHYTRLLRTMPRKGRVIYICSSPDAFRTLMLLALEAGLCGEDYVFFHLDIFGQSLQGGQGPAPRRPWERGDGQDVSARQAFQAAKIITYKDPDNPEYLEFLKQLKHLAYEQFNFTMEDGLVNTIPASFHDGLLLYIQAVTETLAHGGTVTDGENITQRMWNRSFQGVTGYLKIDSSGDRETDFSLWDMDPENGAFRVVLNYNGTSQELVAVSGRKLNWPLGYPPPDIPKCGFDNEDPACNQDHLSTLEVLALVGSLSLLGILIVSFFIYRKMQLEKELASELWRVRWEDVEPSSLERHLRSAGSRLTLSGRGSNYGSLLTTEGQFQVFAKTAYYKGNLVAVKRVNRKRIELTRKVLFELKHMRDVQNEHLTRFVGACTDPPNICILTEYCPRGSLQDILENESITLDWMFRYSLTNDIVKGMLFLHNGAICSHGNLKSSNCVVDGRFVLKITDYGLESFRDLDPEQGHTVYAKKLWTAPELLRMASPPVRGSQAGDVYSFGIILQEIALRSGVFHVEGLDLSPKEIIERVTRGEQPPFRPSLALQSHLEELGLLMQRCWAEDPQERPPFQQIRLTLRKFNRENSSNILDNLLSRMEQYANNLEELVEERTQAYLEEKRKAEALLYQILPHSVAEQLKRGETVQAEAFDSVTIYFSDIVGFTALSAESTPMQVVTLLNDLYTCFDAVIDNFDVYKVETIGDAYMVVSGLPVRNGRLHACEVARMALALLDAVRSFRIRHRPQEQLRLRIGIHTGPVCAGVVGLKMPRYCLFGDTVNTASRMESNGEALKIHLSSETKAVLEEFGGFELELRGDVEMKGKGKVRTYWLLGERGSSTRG
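Compound pre-incubated 30 min at room temperature on GloSensor-loaded HEK293 cells stably carrying hNpr1 and the pGS-40F cGMP biosensor. Stimulation uses hNppA at 0.1 nM final; luminescence is taken at baseline and 20 min post-agonist.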
Active calls of the source: *; u = inconclusive; [ ] = dose if it differs, or a comment. % is scaled to controls: 0 for no effect and ±100 for the full control effect; potency is read from the fitted curve at half-maximal effect. The list is partial; count on the stated rates, not on these rows.

Compound | NPR1 antag
COc1cccc(CC(=O)Nc2ccc3c(c2)CN(Cc2ccccc2Cl)C(=O)C(C)O3)c1 (configuration not stated) | -27.8%
CC(C)CCN1C(=O)N(CCCc2ccncc2)C(=O)C12CCN(Cc1ccc(F)cc1)CC2 | 1.8%
CN1C[C@H](O)C[C@H]1c1nnc2n1CCN(Cc1ccc(F)c(F)c1)C2 | -1.8%
COCc1ncc(C)n1CCNC(=O)c1cc(-c2ccc(C)cc2C)n[nH]1 | 1.3%
CN(C)C(=O)C1CN(C(=O)C2CCCC2)CC12CCOCC2 (configuration not stated) | -0.8%
CN1Cc2nc(-c3ccc4c(c3)OCO4)ccc2OCC1=O | -14.4%[70.6 µM]
CCn1ccc(C(=O)N2CCc3nnc([C@@H]4C[C@@H](O)CN4C(C)C)n3CC2)n1 | -0.4%
COc1ccc(CNC(=O)N2CC3CC(C2)[C@H]2CCCC(=O)N2C3)cc1 (some centres not stated) | 1.2%
CCN1CCN(C(=O)CCC[C@@H]2[C@H]3CCCN4CCC[C@@H](CN2Cc2ccccc2)[C@@H]34)CC1 | 3.5%
Cc1cc(N)n(CC(=O)N[C@@H]2COCC[C@@H]2OCc2c(C)noc2C)n1 | 0.1%
COc1ccc(CCNC(=O)c2c(C)noc2-c2ccccc2Cl)cc1OC | -1.3%
CN1C(=O)C(c2ccccc2)CC12CCN(Cc1ccc(F)cc1F)CC2 (configuration not stated) | -1.0%
O=C(C1CCCC1)N1CCn2c(nnc2-c2ccccc2)C1 | 5.0%[70.6 µM]
Cc1oc2ccn(Cc3ccccc3F)c(=O)c2c1C(=O)NC1CCCCC1 | -4.8%
COc1ccc(Cn2c(-c3cccc(Cl)c3)nc(C)c(CCO)c2=O)cc1F | -4.2%
COCCN1C(=O)CS(=O)(=O)C12CCN(C(=O)c1cccc(OC)c1)CC2 | 3.0%

An excerpt of these results, as labelled records:
Molecule: CN1C[C@H](O)C[C@H]1c1nnc2n1CCN(Cc1ccc(F)c(F)c1)C2
  NPR1 antag: -1.8%

Molecule: COCc1ncc(C)n1CCNC(=O)c1cc(-c2ccc(C)cc2C)n[nH]1
  NPR1 antag: 1.3%

Molecule: CN(C)C(=O)C1CN(C(=O)C2CCCC2)CC12CCOCC2 (configuration not stated)
  NPR1 antag: -0.8%

Molecule: CN1Cc2nc(-c3ccc4c(c3)OCO4)ccc2OCC1=O
  NPR1 antag: -14.4%[70.6 µM]

(cont.)
Compound | NPR1 antag
Cc1ccc(-c2nc(C3CC(=O)N(c4ccc(F)cc4)C3)no2)cc1 (configuration not stated) | 0.0%
COc1cccc(CN2Cc3nc(-c4c(C)noc4C)ccc3OCC2=O)c1 | -7.0%[70.6 µM]
O=C1CCCCC(CNC(=O)C2CC2)N1 (configuration not stated) | 5.5%
CN1CCC(OCCCn2cnc3cn(C)nc3c2=O)CC1 | -1.4%
CN(C)c1ccc(CNC(=O)C2(c3ccc(NS(C)(=O)=O)cc3)CCCCC2)cc1 | 1.2%
COCCn1ncc(N2CCC(NC(=O)c3ccc(OC)nc3)CC2)cc1=O | -10.9%
CCC1(N2CCN(C(=O)c3ccncc3)CC2)CCN(CCC(C)C)C1 (configuration not stated) | -10.0%
CCCNC(=O)N1CCOc2ccc(CN3CCc4ccccc4C3)cc2C1 | -2.0%
COCC(=O)NC[C@H]1CCN(Cc2cccc(C)c2)C[C@H]1N(C)C | 9.0%
O=C(c1cccc(Cl)c1)N1CCn2c(nn(-c3ccncc3)c2=O)C1 | -6.3%
O=C(CCc1nnn2c1CN(Cc1cn[nH]c1-c1ccc(F)cc1)CC2)N1CCCC1 | 5.5%
O=C(NCCc1ccccc1)N1CCCC(c2nc(C3CCOCC3)no2)C1 (configuration not stated) | -13.6%
O=C(c1cccnc1)N1CCOC[C@H](Oc2ccc(C(F)(F)F)cn2)C1 | 1.8%[70.6 µM]
O=S(=O)(N[C@H]1[C@H](O)[C@H](O)C[C@@H]1C1CCCCC1)c1ccccc1 | -6.3%[70.6 µM]
CCOc1ccccc1C1NC(=O)N(CC(=O)NCc2ccc(C)cc2)C2=C1C(=O)OC2 (configuration not stated) | 0.3%
COCCN1C(=O)CS(=O)C12CCN(S(=O)(=O)c1cn(C)cn1)CC2 (configuration not stated) | -2.6%

Single entries from the list.
NPR1 antag, `O=S(=O)(N[C@H]1[C@H](O)[C@H](O)C[C@@H]1C1CCCCC1)c1ccccc1` stands at -6.3%[70.6 µM]
NPR1 antag, `CCOc1ccccc1C1NC(=O)N(CC(=O)NCc2ccc(C)cc2)C2=C1C(=O)OC2` (configuration not stated) stands at 0.3%

More records follow.
Compound | NPR1 antag
COc1ccc(CN2C=C(C(=O)OCc3noc(-c4ccc(C#N)cc4)n3)C(C)=NS2(=O)=O)cc1 | u
N#Cc1ccc(C(=O)NC2CCN(c3cc(-c4ccccc4)[nH]n3)CC2)cc1 | 0.0%
O=C(Cc1c[nH]c2ccccc12)NCC12CCCC=C1NC(=O)CC2 (configuration not stated) | -8.1%
CC1CCN([C@@H]2[C@H](O)[C@H](CO)O[C@@H]2CNS(=O)(=O)c2ccc(Cl)cc2)CC1 | 3.9%
CN(C)CCN(C)C(=O)c1ccc2c(c1)NC(C)(COc1ccccc1)CO2 (configuration not stated) | -5.9%[70.6 µM]
CN(Cc1cccc(C(F)(F)F)c1)C(=O)c1ccccc1F | -5.9%[70.6 µM]
COc1ccc(-c2cnc([C@@H]3COCCN3Cc3ccccc3O)[nH]2)cc1 | 2.1%[70.6 µM]
CC1CCN(c2ccc(CNC(=O)c3cccc4c3CCN4C(=O)C3CC3)cc2)CC1 | -0.2%
Cc1ccc(C)c(C(=O)N2CCC3(CC2)N=C(c2ccc(Cl)cc2)NO3)c1 | u
FC(F)(F)c1ccc(N2CCC(N[C@@H]3C[C@@H]4OCC[C@@H]43)CC2)nc1 | -9.3%
Cc1cc(C)cc(NC(=O)N(C)CC2CCOC2)c1 (configuration not stated) | 1.1%
CSc1cccc(NC(=O)N[C@H]2CCN(C(=O)c3cccn3C)[C@@H]2C(=O)N[C@H](Cc2ccccc2)C(N)=O)c1 | 0.2%
Cc1ccc(CN2CCn3c(nnc3[C@@H]3C[C@@H](O)CN3Cc3cccnc3)C2)s1 | 17.2%
O=C(c1ccoc1)N1CCN(c2cc(C3CC3)ncn2)CC(O)C1 (configuration not stated) | 0.0%
Cc1ccc(CN2C[C@@H]3C(=O)N(CCc4ccccc4)C(=O)[C@@H]3C2)s1 | -10.5%
COc1ccc(Cl)cc1NC(=O)Cn1c(N2CCCCC2)nc(C)c(C)c1=O | -11.9%
O=C(c1cccs1)N1CC2CC(C1)[C@H]1CCCC(=O)N1C2 (some centres not stated) | 0.1%
CCn1ccnc1CN(C)C1CCCN(CCc2ccccc2)C1 (configuration not stated) | 2.9%
COc1cccc(N2CCN(C(=O)COc3ccc(NC(=O)C4CC4)cn3)CC2)c1 | 3.4%
Cc1ccc(CN2CC[C@@H]3C(=O)NCCCCCCN(Cc4ccncc4)[C@@H]3C2)o1 | -5.3%
Cc1nn(C)cc1CN(C)C(=O)c1cn2ccnc(-c3ccccc3)c2n1 | -0.2%
Cc1cc(C)cc(NC(=O)N2CCCC(c3noc(COc4ccccc4F)n3)C2)c1 (configuration not stated) | -0.4%
Cc1n[nH]c(C)c1CCC(=O)Nc1ccc2c(c1)C(=O)N1CCC[C@H]1C(=O)N2 | 1.6%
O=C(C1CCCCC1)N1CCC(n2cc(-c3nc(-c4ccccc4)no3)nn2)CC1 | -19.0%
O=C(c1ccccc1F)N1CCN(c2nc3ncccc3o2)CC1 | 1.2%[70.6 µM]
O=C(Cc1cccs1)N1CCCN(C(=O)C2CC2)c2ccccc21 | 1.8%
O=C(Cn1ccn2nc(-c3ccc(F)cc3)c(CO)c2c1=O)Nc1ccccc1C(F)(F)F | -8.0%
Cn1cnc2ccc(-c3cccc(C(F)(F)F)c3)nc2c1=O | -9.7%[70.6 µM]
COc1ccc2c(c1)OCC(C(=O)NCc1noc(-c3ccco3)n1)C2 (configuration not stated) | 3.3%
O=C(NCc1nnc2c(-c3nc(C4CC4)no3)cccn12)c1cccc(Cl)c1 | -11.8%
COc1ccc(NC(=O)c2ccc3c(c2)N(C(=O)c2ccc(F)cc2)CC3)cc1 | -14.5%
O=C(C1CCCCC1)N1CC[C@H](c2nnc(-c3cccnc3)o2)C1 | -0.2%[70.6 µM]

Additional compounds:
Compound | NPR1 antag
COc1ccc(CN[C@H]2[C@H](O)[C@@H](N3CCN(c4ccccc4OC)CC3)[C@@H]3OC[C@H]2O3)cc1 | 1.3%
O=C1N(C2CCNCC2)C(c2ccccc2)C12CCCCC2 (configuration not stated) | 4.7%
Cc1ccc2c(C(=O)O)cc(NC(=O)C(C)C)cc2n1 | 4.6%
CC1CCN(C(=O)c2ccc(CN3C(=O)NC4(CCS(=O)(=O)CC4)C3=O)cc2)CC1 | -1.7%
CCN(Cc1ccncc1)C(=O)c1cc(-c2cnc(C)nc2)nc2c(C)cccc12 | 3.5%
CC(C)c1ccc(CN2CCCC3(CCN(C(=O)c4ccsc4)C3)C2)cc1 (configuration not stated) | 4.0%
O=C(c1ccco1)N1CC2CC(C1)[C@H]1CCCC(=O)N1C2 (some centres not stated) | 1.7%
COc1ccc2[nH]cc(CCNC(=O)CC3=C4CCCCC4N(C)C3=O)c2c1 (configuration not stated) | -13.3%
COc1ccc(-c2nc(-c3ccccc3)nc3c2CN(C(=O)Cc2cccc(Cl)c2)CC3)cc1 | -1.2%
Cn1ccc2c(C(=O)NCc3cccnc3)nc(-c3ccccc3C(F)(F)F)cc21 | -2.5%[70.6 µM]
Cc1ccc(CN2CCC3(CC2)CNc2ccccc2[S+](=O)([O-])N3)cc1 | 6.4%
COc1ccc(C(=O)N2CC[C@@](O)(C3CCOCC3)[C@H](C)C2)o1 | 4.5%
CCOc1cc(=O)n2c(c1C(=O)Nc1cccc(OC)c1)CCCC2 | 0.4%
Cc1oc2ccn(Cc3ccccc3F)c(=O)c2c1C(=O)NC(C)c1ccccc1 (configuration not stated) | -3.0%
COc1ccc(NC(=O)N2CCc3c(C(=O)N(C)Cc4ccco4)cccc32)cc1 | u
Cc1cc(F)ccc1OC1CN(Cc2cccnc2)C1 | -1.2%[70.6 µM]
COCCN1CC(CO)C2(CCN(Cc3cccc(OC)n3)CC2)C1 (configuration not stated) | 0.2%
CCn1cc(C(=O)N2C[C@@H](COC)[C@H](c3ccccn3)C2)cn1 | 3.3%
COc1ccc(C(=O)N2CCCn3cc(-c4ccccc4F)nc32)cn1 | -6.8%
OCC1(Cc2ccc(Cl)cc2)CCNCC1 | -9.2%
COCc1noc([C@@H]2CN(C3CNC3)C[C@H]2C(N)=O)n1 | 2.2%
O=C(c1ccc[nH]1)N1CCN(C(=O)c2nnn3c2COC(c2ccc(Cl)cc2)C3)CC1 (configuration not stated) | -1.9%
COc1ccc(C(=O)N[C@@H]2CN(Cc3ccccn3)C[C@H]2CN(C)C)cc1F | -0.7%
CC(C)c1ccc(CC(=O)N2CCCc3ncc(C(=O)NCCN4CCCC4)cc32)cc1 | 1.3%[70.6 µM]
COc1ccc2ccccc2c1CNC1CCN(c2ccc(C(=O)N3CCOCC3)cc2)CC1 | -14.7%
N#Cc1ccc(C(=O)NCC(=O)N2CCCCCCNC(=O)CC2c2ccccc2)cc1 (configuration not stated) | 2.8%
Cc1nc2ccc(C(=O)N3CCCC(C)(Cc4ccc5c(c4)OCO5)C3)cc2o1 (configuration not stated) | 0.0%
Cc1c(F)cccc1NC(=O)N1CCC(N2CC3CC(C2)[C@H]2CCCC(=O)N2C3)CC1 (some centres not stated) | -4.9%
COC(=O)[C@@H](C)NC(=O)[C@H]1CN(C(=O)c2ccc(N(C)C)cc2)CCN1S(C)(=O)=O | 6.3%
O=C(c1ccncc1)N1CCC(N2C(=O)C(OCC3CC3)C23CCOCC3)CC1 (configuration not stated) | 4.6%
CCCc1cc(C(=O)N(C)CCOc2ccccc2CC)n(C)n1 | 7.08µM*
COc1ccc2nc3n(c2c1)[C@@H](CNCc1ccc(S(C)(=O)=O)cc1)COC3 | -2.7%[70.6 µM]
COCCn1c(CN2C(=O)CCc3ccccc32)nnc1C1CC(N)C1 (configuration not stated) | 10.6%
O=C(CCC1CCN(c2cc(NC3CC3)ncn2)CC1)NCc1ccccc1Cl | -24.1%
Cc1nc(NCCN2CCOC2=O)c2sccc2n1 | 2.4%
Cc1ccc(C(=O)N2CCCN(S(C)(=O)=O)C(c3ccccc3)CC(=O)NCC2)cn1 (configuration not stated) | 3.7%
COc1ccc(CCC(=O)N2CCC[C@H]2c2nc(-c3ccc(OC)cc3)no2)cc1 | -21.9%
Cc1ccc(NC(=O)N2CCC(CCNC(=O)c3sccc3C)CC2)cc1 | -4.4%
OC1(c2csc(CN3CCOCC3)n2)CCN(CC2CC2)CC1 | -3.8%[70.6 µM]
COCc1cc(C[C@@H]2CC[C@H](O)[C@@H](CNCc3ccc(F)cc3)O2)no1 | -5.3%[70.6 µM]
COc1ccc(C(=O)N2CCCCCCNC(=O)[C@@H]3C[C@@H](c4nc(-c5cnccn5)no4)C[C@@H]32)cc1 | -10.9%
COc1ccc(OC)c(NC(=O)C2CCN(c3cc(C(F)(F)F)ncn3)CC2)c1 | -2.5%
CCCc1noc(-c2ccn3c(CNC(=O)c4cccnc4)nnc3c2)n1 | 17.2%
O=C(N[C@@H]1C[C@H](Cn2cc(C3CC3)nn2)[C@@H](O)[C@H]1O)C1CCOCC1 | -3.5%[70.6 µM]
O=C(N1CCCC(c2nn[nH]n2)C1)C1(c2ccccc2)CC1 (configuration not stated) | -1.0%
Cc1ccc(CN2C(=O)NC3(CCCN(C(=O)c4cccc(C)c4)C3)C2=O)cc1 (configuration not stated) | -1.5%
O=C(c1cncc(Br)c1)N1CCC2(CC1)CC(O)CCO2 (configuration not stated) | 0.5%
